# OX1R antag = antagonists of human orexin 1 receptor; 330,000 tested, 0.43% active; CHO/OX1R cells, Fluo-8 calcium fluorescence, orexin A; O43613; inhibition, % at 5 µM;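 active = inhibition above its plate's threshold, mean inhibition of all tested compounds on the plate plus 3 SD, cut at about 37% in these data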;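 note: 0% = orexin A challenge wells and 100% = SB-334867-A antagonist wells; not every result past the cut was called active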
# Target sequence (O43613 whole entry, looked up): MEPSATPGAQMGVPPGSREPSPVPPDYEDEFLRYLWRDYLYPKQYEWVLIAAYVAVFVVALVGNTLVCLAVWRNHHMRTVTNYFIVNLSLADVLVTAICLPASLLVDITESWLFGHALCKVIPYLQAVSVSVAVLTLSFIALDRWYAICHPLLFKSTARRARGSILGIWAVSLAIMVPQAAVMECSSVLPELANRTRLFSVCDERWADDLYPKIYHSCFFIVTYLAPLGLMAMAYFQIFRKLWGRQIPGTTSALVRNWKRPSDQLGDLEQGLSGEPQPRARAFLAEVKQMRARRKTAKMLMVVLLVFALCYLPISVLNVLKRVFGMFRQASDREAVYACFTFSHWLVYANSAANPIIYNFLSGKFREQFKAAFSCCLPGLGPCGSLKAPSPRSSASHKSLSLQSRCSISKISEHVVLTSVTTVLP
# Starred values were filed as active, the others as inactive. A portion of the library, and most or all hits are left out here.
# Start of the data: the first three records, ahead of the listing:
compound,OX1R antag
CC/C(=N\N=C1\SC(C)C(=O)N1Cc1ccco1)c1ccccc1 (centres undefined),-33
O=c1oc2c(CN3CCOCC3)c(O)ccc2c2c1CCCC2,-15
CCc1ccccc1NC(=S)N(Cc1ccc(C(=O)O)cc1)Cc1ccc(OC)c(OC)c1,-4

# Results, from the start:
compound,OX1R antag
CC/C(=N\N=C1\SC(C)C(=O)N1Cc1ccco1)c1ccccc1 (centres undefined),-33
O=c1oc2c(CN3CCOCC3)c(O)ccc2c2c1CCCC2,-15
CCc1ccccc1NC(=S)N(Cc1ccc(C(=O)O)cc1)Cc1ccc(OC)c(OC)c1,-4
C[C@@H]1NC(=O)/C(=C\c2ccccc2Br)NC1=O,-30
CCC(CC)C(=O)N1CCN(c2ccccc2)CC1,0
CCOc1cccc(C(=O)Nc2cccc(C(=O)NC(C)(C)C)c2)c1,-12
Cc1cccc(NC(=O)CSc2nnc(-c3ccncc3)n2CC2CCCO2)c1 (centres undefined),-15
O=C(O)C1CCN(S(=O)(=O)c2cccs2)CC1,0
CN(CC(=O)Nc1ccccn1)S(=O)(=O)c1ccc(Cl)cc1,-29
Cc1cc(C(=O)CSc2cccc[n+]2[O-])c(C)n1-c1ccc(OC(F)F)cc1,-7
Cc1cc(N2C(=O)C3CCC(c4ccccc4)CC3C2=O)no1 (centres undefined),-20
CCOc1ccc(CCNC(=O)COC(=O)c2cccnc2SC)cc1OCC,-34
CNC(=S)N/N=C/c1c(C)nn(-c2ccccc2)c1Cl,15
O=C(CSCc1ccc([N+](=O)[O-])cc1)N/N=C/c1ccncc1,-21
O=C1CSC(c2ccccc2)N1c1ccc([N+](=O)[O-])cc1 (centres undefined),-17
CC(=O)N(CCC1(C(C)C)CCOC(C)(C)C1)C(C)c1cccs1 (centres undefined),-13
CN1CCC(OC(=O)c2ccccc2)CC1,-9
CC(C)C[C@H]1COCCS(=O)(=O)N1Cc1ccc(Cl)c(Cl)c1,-13
CCOC(=O)CNC(=O)Nc1nnc(-c2ccc(OCC)cc2)o1,-11
O=C(CSc1nc(-c2ccccc2)c(-c2ccccc2)[nH]1)NCCN1C(=O)CSC1=O,-4
Cc1nn(CC(=O)Nc2ccc(C#N)cc2)c(C)c1[N+](=O)[O-],5
Cc1ccc(Cl)cc1N1CCN(S(=O)(=O)c2ccc3c(c2)oc(=O)n3C)CC1,-12
CC(C)CCNC(=O)C(c1cccs1)N(CC1CCCO1)C(=O)Cn1nnc2ccccc21 (centres undefined),-33
COc1ccc(OC)c(NC(=O)c2c(NC(=O)CNCc3ccco3)sc3c2CCC3)c1,-46
O=C(CCc1ccccc1)N1CCN(CCO)CC1,5

# Single values from the results shown:
# O=c1oc2c(CN3CCOCC3)c(O)ccc2c2c1CCCC2 in OX1R antag shows -15
# CN1CCC(OC(=O)c2ccccc2)CC1 in OX1R antag shows -9
# CCc1ccccc1NC(=S)N(Cc1ccc(C(=O)O)cc1)Cc1ccc(OC)c(OC)c1 in OX1R antag shows -4

# Next section
compound,OX1R antag
CC(C)(C)OC(=O)NCCNC(=O)c1cccs1,-4
COc1ccc(NC(=O)Cn2c(=O)n(CCC(=O)NCC3CCCO3)c(=O)c3cc(OC)c(OC)cc32)cc1 (centres undefined),-7
CCOc1ccc(C(Nc2ccc(C)cc2)P2(=O)OCCCO2)cc1 (centres undefined),-5
CCCCc1nc2cc(C(=O)N(C)CCc3cn[nH]c3)ccc2o1,-21
CCn1cnc2sc(C(=O)Oc3ccc(Br)cc3)c(C)c2c1=O,-15
O=C(O)COc1ccc(/C=C2\SC(=Nc3ccccc3)N(c3ccccc3)C2=O)cc1,-6
COc1ccccc1NC(=O)Nc1ccc2c(c1)CCC2,-2
O=C(O)/C=C/C(=O)Nc1cccnc1,1
Cc1cc(S(=O)(=O)N2CCOCC2)ccc1OCC(=O)Nc1cccc(C(F)(F)F)c1,-18
Cc1ccc(S(=O)(=O)N2CCOCC2)cc1NC(=O)CSc1n[nH]c(N)n1,-11
CCNC(=O)/C(C#N)=C/c1c(N2CCCCCC2)nc2c(C)cccn2c1=O,-36
Cc1ccc(NC(=O)Cn2nnc(C(=O)NCc3ccc4c(c3)OCO4)c2N)cc1,-1
COc1ccc(CCNC(=O)c2nn(C)cc2Cl)cc1,-1
COc1cc(C(C(=O)NC2CCCCC2)N(C(=O)Cc2c[nH]c3ccccc23)c2ccc(C)cc2)cc(OC)c1OC (centres undefined),-23
O=C(CCN1c2ccccc2Sc2ccccc21)Oc1ccccc1,-8
COc1nc(N(C)C)nc(-n2nnc(C(C)=O)c2C)n1,-2
Cc1cc(NC(=O)c2ccccc2F)n(C(C)(C)C)n1,4
CCOC(=O)C1CCN(C(=O)CCN2C(=O)C3C4C=CC(C4)C3C2=O)CC1 (centres undefined),-6
CCC1Cc2c(nc(N)c3c(N)nc(N4CCOCC4)c(C#N)c23)O1 (centres undefined),-27
COC(=O)c1c(NC(NC(=O)CC(C)C)C(Cl)(Cl)Cl)sc2c1CCC2 (centres undefined),-18
Cc1ccc(C)c(OCC(=O)Nc2cc(NC(=O)COc3cc(C)ccc3C)cc(C(=O)O)c2)c1,3
CCOc1ccc(-n2c(SCC(=O)Nc3ccccc3CC)nc3n[nH]c(C)c3c2=N)cc1,-8
COc1cc(OC)cc(C(=O)N2CCN(Cc3cccc(F)c3)CC2)c1,-14
COc1cc(C)c(S(=O)(=O)NC2CC(C)(C)NC(C)(C)C2)cc1C,0
Cc1cccc(NC(=O)CSc2nc(C)c(Cc3ccccc3)c(=O)[nH]2)c1,-34
Cc1cc(N)c(-n2cc3c(=O)n(C)c(=O)n(C)c3c2)cc1C,-32
c1ccc2c(c1)Oc1cccc3cccc-2c13,-10
O=C(N/N=C/c1cn(Cc2ccccc2)c2ccccc12)c1cccnc1,-20
O=C(COCC(=O)N1CCOCC1)N1CCOCC1,-13
COc1ccc(C2=NN(C(=O)CN3CCOCC3)C(c3nc4ccccc4[nH]3)C2)cc1 (centres undefined),-24
COc1ccccc1/C=C/C(=O)c1ccc(NC(C)=O)cc1,8
CCC(=O)Oc1ccc(NC(=O)CSCc2ccccc2)cc1,-7
COc1ccc2c(c1)c(=O)c(C(=O)c1ccc(Cl)cc1)cn2CC(=O)Nc1ccc(F)cc1,-5
CCOc1ccc(CCNC(=O)CN2CCN(Cc3ccccc3C)C2=O)cc1OCC,-37
CC1(C)CC(=O)C/C(=N\NC(=S)NCc2ccccc2)C1,-24
CCOC(=O)Cc1csc(NS(=O)(=O)Cc2ccccc2)n1,5
N#CC(C#N)=Cc1ccc(OC(=O)c2ccccn2)cc1,3
CN1CCN(c2cc(=O)n(-c3ccc(Cl)cc3)c(=O)[nH]2)CC1,0
C/C(=N\NC(=O)c1cc(O)cc(O)c1)c1ccc(NC(=O)Cc2ccccc2)cc1,-13
CC(NC(=O)C(Cc1ccccc1)N1C(=O)C2C3CCC(C3)C2C1=O)c1ccccc1 (centres undefined),-30
COC(=O)Cn1cnc2scc(-c3ccc(C)c(C)c3)c2c1=O,-14
OCC[C@H]1C[C@H](O)[C@@H](O)[C@]2(Cc3ccccc3O2)O1,-24
CCCC(=O)Nc1nc(-c2ccc(Cl)s2)cs1,-17
COc1ccc(C2C(C(=O)c3ccc(C)o3)=C(O)C(=O)N2Cc2cccnc2)cc1 (centres undefined),-22
COc1cc(CC(=O)OCC(=O)c2ccc3c(c2)OCCO3)cc(OC)c1OC,-6
COc1ccc(C(=O)Nc2ccc(NC(=O)c3cnccn3)cn2)cc1,-10
Cc1cc(C)cc(C(=O)Nc2cccnc2)c1,-11
Cc1ccc(NC(=O)c2ccco2)cc1NC(=O)CSc1nnc(-c2cccs2)n1C,-34
COc1ccc([C@H]2/C=C\CN(S(=O)(=O)/C=C/c3ccccc3)[C@@H](C)C(=O)N2Cc2ccc(F)cc2)cc1,-16
C=CCn1c(C(C)NC(=O)CC)nc2ccccc21 (centres undefined),-14

# New compounds follow.
compound,OX1R antag
C(=N\Nc1ccc(-n2ccnc2)nn1)/c1ccccc1,-12
CCOc1ccc(N(CC(=O)NCc2cccs2)S(=O)(=O)c2c(C)noc2C)cc1,-28
Cc1ccccc1C(=O)NNc1ncnc2c1cnn2C,-3
CCOC(=O)C1CN(S(=O)(=O)c2ccc(Cl)cc2)c2cc(S(=O)(=O)CC)ccc2O1 (centres undefined),-11
N#Cc1ccccc1CSC1=NCCS1,-4
CCn1c(SCC(=O)NCC2CCCO2)nc2c(c1=O)SCC2 (centres undefined),-3
COC(=O)C1CCN(C(=O)COC(=O)c2ccc3[nH]c4c(c3c2)CCCC4)CC1,-21
O=C(O)c1ccc(COc2c(F)c(F)c(F)c(F)c2F)o1,0
c1ccc(Cn2ncc3c(Nc4ccccc4)ncnc32)cc1,-21
CCN(Cc1ccccc1)S(=O)(=O)c1c[nH]c(C(=O)OC)c1,4
CCOc1ccccc1C(=O)N1CCOCC1,0
CCCCOC(=O)/C=C\C(=O)NC(N)=O,11
N/C(=N\OC(=O)c1cc(-c2ccccc2)nc2ccccc12)c1ccc(Cl)cc1,-8
CCN1CCN(CCCNC(=O)CCC(=O)N2CCOc3ccccc32)CC1,-11
O=C1C(=O)N(Cc2ccccc2)C(c2cccc(O)c2)/C1=C(\O)c1ccc2c(c1)OCCO2 (centres undefined),-4
O=C(CN1CCN(C/C=C/c2ccccc2)CC1)Nc1ccc(F)cc1F,-12
C#CCOCCOCCOCCNc1nc(N2CCN(C(=O)Cn3cc(CCCCN)nn3)CC2)nc(N2CCN(C(=O)[C@H](C(C)C)n3cc(CCO)nn3)CC2)n1,-19
Cc1ccc(C(=O)CCC(=O)OCc2nnc(-c3ccccc3)o2)cc1,-13
COc1ccc(-n2nc(C(=O)NCC(=O)NC3CCCCC3)c3ccccc3c2=O)c(OC)c1,-59
CC(O)c1nc2ccccc2n1C/C=C/c1ccccc1 (centres undefined),-25
COC(=O)c1sc(-c2ccc(Cl)cc2)cc1NC(=O)c1ccccc1C(=O)O,-16
CC(=O)Nc1ccc(S(=O)(=O)Oc2cccc(N3C(=O)C4CCCCC4C3=O)c2)cc1 (centres undefined),-12
CCN1CCc2c(C#N)c(N3CCCCC3)nc(NCc3ccccc3)c2C1,-20
Cc1cc(Cl)ccc1C(=O)C1CCCN(C(=O)c2cccnc2C)C1 (centres undefined),-13
Cc1cccc(-c2cc(C(=O)N/N=C/c3cccnc3)c3ccccc3n2)c1,-30

# Filtered by structure: those above with a nitro group on carbon (three)
compound,OX1R antag
O=C(CSCc1ccc([N+](=O)[O-])cc1)N/N=C/c1ccncc1,-21
O=C1CSC(c2ccccc2)N1c1ccc([N+](=O)[O-])cc1 (centres undefined),-17
Cc1nn(CC(=O)Nc2ccc(C#N)cc2)c(C)c1[N+](=O)[O-],5

# Continued:
compound,OX1R antag
COc1ccc(OC)c(NC(=O)CSc2nnc(CNC(=O)c3ccccc3F)o2)c1,13
CC1CCC/C(=C(\C#N)c2nc(-c3cc4ccccc4oc3=O)cs2)C1 (centres undefined),-16
CCOC(=O)C1(Cc2ccccc2C)CCCN(C(=O)CN2C(=O)CSC2=O)C1 (centres undefined),-40
CCc1ccc(OCC(=O)N2CC(C(=O)OC)Oc3ccccc32)cc1 (centres undefined),-14
CC12CCC(=O)N1C(C(=O)NNC(=O)c1ccc(F)cc1)CS2 (centres undefined),-25
O=C(c1ccc(NS(=O)(=O)c2cccc(F)c2)cc1)N1CCCC1,-32
O=C(Nc1ccc(CN2CCCCC2)cc1)c1ccc(Br)o1,-30
CC(=O)Nc1ccc(NC(=O)CSc2ccc3nnc(CCNS(=O)(=O)c4ccc(C)cc4)n3n2)cc1,-30
COc1ccc(-c2csc(N)n2)cc1F,-31
CC(=O)c1ccc(OCc2cc(C(=O)N3CC4C[C@@H]5CC3C[C@H](C4)C5)no2)cc1,1
NS(=O)(=O)c1ccc(CCNC(=O)CNS(=O)(=O)c2cccc(Br)c2)cc1,-18
COc1ccccc1NC(=O)CSc1n[nH]c(-c2cccnc2)n1,-7
CC(=O)c1ccc(OCC(O)CN2CCCC(C)C2)cc1 (centres undefined),-16
Cn1c(COc2ccc(Cl)cc2Cl)nnc1SCC(=O)NCC1CCCO1 (centres undefined),-15
CCc1ccc(-c2cc3c(=O)n(CC(=O)N4CCCC4)nc(C)n3n2)cc1,-8
CCc1nc(SCC(=O)Nc2cc(C)on2)c2c(C)c(C)sc2n1,-13
CCN(CC)S(=O)(=O)c1ccc(Cl)c(C(=O)Nc2cccnc2)c1,-32
O=C(NC1=NCCS1)c1sc2ccccc2c1Cl,4
O=C(NC1C(=O)NNC1c1ccccc1)c1ccccc1 (centres undefined),2
CC(CC(=O)Nc1ccc2c(c1)OCCO2)c1ccccc1 (centres undefined),-10
O=C(COc1ccc(-c2ccccc2)cc1)N1CCN(C(=O)c2cccs2)CC1,-35
O=C(O)CCCC(=O)Nc1ccc(Sc2ccc([N+](=O)[O-])cc2)cc1,5
O=C1OC(c2ccc(Cl)cc2)/C(=C(/O)c2ccccc2)C1=O (centres undefined),-36
CCCCN(CC)CCNS(=O)(=O)c1ccc2c(c1)oc(=O)n2C,-11
CC(=O)n1nc(-c2cccnc2)nc1NCc1cccs1,-11
CCS(=O)(=O)Nc1cc(C(=O)OC)ccc1C(=O)OC,-13
CCOC(=O)c1cc(-c2ccccc2)sc1NC(=O)C(C)N1C(=O)c2ccccc2C1=O (centres undefined),-29
O=C1CCCN1CCCNS(=O)(=O)c1ccc(Cl)c(C(=O)N2CCOCC2)c1,-6
COc1cc(OC)cc(C(=O)NNC(=O)c2cc(=O)[nH]c3ccccc23)c1,-7
COc1cc(C(=O)c2nccc3cc(OC)c(OC)cc23)c([N+](=O)[O-])cc1OC,-11
Cc1cccc(C(=O)Nc2nnc(SCC(=O)Nc3ccc4c(c3)oc3ccccc34)s2)c1,2

# High-throughput results deposited in PubChem BioAssay by The Scripps Research Institute Molecular Screening Center.
